# Beta2AR agonist: activates human beta-2 adrenergic receptor causing internalization. P07550. Am2.2-beta2AR cells, FAP receptor internalization, flow cytometry; reference of the scale not given here. response, % (no concentration beside the values). 340,000 tested, 0.43% active;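 active = response above a set limit, near 3 SD of response in nonfluorescent compounds, cut at about 42% in these data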;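 note: stock transfer was 100 nL into about 11 µL; a reference agonist was the positive control; negative values mostly stem from fluorescent compounds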
# Target sequence (P07550 whole entry, looked up): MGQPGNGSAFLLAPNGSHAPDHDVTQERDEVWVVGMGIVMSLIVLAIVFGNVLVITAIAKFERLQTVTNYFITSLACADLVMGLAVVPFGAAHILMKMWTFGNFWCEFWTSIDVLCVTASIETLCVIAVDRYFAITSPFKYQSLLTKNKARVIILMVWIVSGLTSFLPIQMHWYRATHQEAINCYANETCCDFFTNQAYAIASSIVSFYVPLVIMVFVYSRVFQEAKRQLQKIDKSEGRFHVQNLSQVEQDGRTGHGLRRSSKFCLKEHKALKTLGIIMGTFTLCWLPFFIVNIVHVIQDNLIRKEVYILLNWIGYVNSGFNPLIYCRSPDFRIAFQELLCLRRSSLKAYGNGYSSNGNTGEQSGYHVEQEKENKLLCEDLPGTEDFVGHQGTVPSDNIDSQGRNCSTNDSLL
# rRNA inh HTS: inhibitors of bacterial rRNA selective over humanized ribosomes; E. coli WT GFP vs humanized-ribosome RFP mutants, fluorescence, 24 h; active compounds read low; DMSO median 0, no signal -100; GFP signal change (wild-type ribosome), % (concentration not given with the values); 350,000 tested, 1.6% active;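 active = significant combined selectivity score with lowered wild-type GFP, culture density cut under 30%, mutant RFP and density less affected; inactive = any of these conditions unmet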; note: one replicate is shown; some compounds called inactive have numbers as strong as hits
# HNF4A DNA FP: change in binding of human HNF4 alpha to DNA; P41235; HNF4a-FITC DNA binding, fluorescence polarization, 1 h; activity change, % at 10 µM; 360,000 tested, 0.3% active; in the data active = activity change above about 30%, passing the limit was not always enough;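 note: controls were the assay level and a saturating level of protein; the project sought stronger binding though the title names inhibitors; some compounds called inactive have numbers as strong as hits; positive values seem to mean higher polarization but the record does not say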
# Target sequence (P41235 whole entry, looked up): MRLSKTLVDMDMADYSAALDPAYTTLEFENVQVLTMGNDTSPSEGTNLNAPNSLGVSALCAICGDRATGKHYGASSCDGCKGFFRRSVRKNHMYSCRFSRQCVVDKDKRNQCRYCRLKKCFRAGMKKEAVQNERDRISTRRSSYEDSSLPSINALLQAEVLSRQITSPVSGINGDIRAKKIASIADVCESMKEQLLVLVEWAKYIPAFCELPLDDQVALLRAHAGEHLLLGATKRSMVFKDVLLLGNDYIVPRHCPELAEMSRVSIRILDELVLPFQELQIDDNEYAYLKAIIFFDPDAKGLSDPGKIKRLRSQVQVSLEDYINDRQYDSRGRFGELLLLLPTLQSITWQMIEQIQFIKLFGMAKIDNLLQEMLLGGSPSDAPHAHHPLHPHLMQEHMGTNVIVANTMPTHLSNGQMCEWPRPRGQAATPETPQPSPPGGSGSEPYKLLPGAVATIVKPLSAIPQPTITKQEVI
# FGF22 binding: shifts melting point of recombinant human FGF22; Q9HCT0; 340,000 tested, 1.5% active; calls only at 9.99 µM; recombinant FGF22 thermal shift, SYPRO orange fluorescence; percent of sucrose octasulfate shift, DMSO zero;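 active = melting point raised past a set limit in the mean and every replicate; inconclusive = no clear call; three in four hits are not shown here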
# Target sequence (Q9HCT0 whole entry, looked up): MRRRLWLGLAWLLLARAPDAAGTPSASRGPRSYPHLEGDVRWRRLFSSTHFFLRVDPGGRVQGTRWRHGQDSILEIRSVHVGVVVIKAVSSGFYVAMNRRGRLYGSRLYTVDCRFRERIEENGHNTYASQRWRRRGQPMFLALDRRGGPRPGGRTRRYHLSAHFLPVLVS
# UCH37 DUB inh: human UCH37 deubiquitinating enzyme inhibition. purified proteasome/UCH37, Ub-AMC cleavage fluorescence. inhibition, % (test concentration not listed). 330,000 tested, 0.33% active;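 active = mean of two replicates above 20%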;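 note: 0% = compound-free wells with enzyme and 100% = wells lacking proteasome; stock transfer was 100 nL into about 20 µL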
#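 Material: Human UCH37 enzyme supplied as purified proteasome complex | Schedule: 30 min compound-proteasome preincubation then 25 min substrate reaction, room temperature | Detection: AMC fluorescence from Ub-AMC cleavage, excitation 355 nm, emission 460 nm | Benchmarks: Wells without proteasome as full block, compound-free enzyme plus substrate as uninhibited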
# ALR inh: inhibitors of human sulfhydryl oxidase ALR. inhibition, % (test concentration not listed). 290,000 tested, 3.8% active. purified ALR, DTT oxidation, H2O2 HRP-luminol luminescence. P55789;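 active = mean and each replicate at 75% or more; inconclusive = only one of the two met; inactive = neither met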;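 note: stock transfer was 7.5 nL into about 7.5 µL; 0% = neutral wells and 100% = wells with inactivated enzyme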
# Ecoli growth: inhibitors of Escherichia coli growth. AID 1053175. OD600 absorbance (concentration not given with the values). 330,000 tested, 0.21% active. OD600, 23 h; active compounds read low;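 active = OD600 absorbance below the run mean of sample wells minus 3.6 SD, in any replicate, cut at about 0.56 in these data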;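 note: stock transfer was 300 nL into about 60 µL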
# rRNA inh HTS OD600: also measured in rRNA inh HTS; calls as there; OD600 change, %; measured here: OD600 growth;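 optical density of the mix in the first replicate; 0 = DMSO median and -100 = no signal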
# rRNA inh HTS RFP: recorded beside rRNA inh HTS, whose call it bears; RFP signal change, %; measured here: RFP humanized mutant strains;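 first replicate; 0 = DMSO median and -100 = no signal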
# * = called active by the depositor; i = inactive; u = inconclusive; x = not tested or not shown.
SMILES,Beta2AR agonist,rRNA inh HTS,rRNA inh HTS OD600,rRNA inh HTS RFP,HNF4A DNA FP,FGF22 binding,UCH37 DUB inh,ALR inh,Ecoli growth
O=C1C=C(NC2=CC3OC(c4ccccc4)OCC3OC2=O)CCC1 (stereo not drawn),6,-5,-6,5.7,-2.1,i,0.0,49,0.65
COc1ccc(C(=O)N2CCC(n3nnc4cc(F)ccc43)CC2)cc1OC,5,8,1,0.2,4.9,i,-0.6,x,0.68
CCOC(=O)c1cnn(-c2ccc(C(C)C)cc2)c1NC(=O)C1CCC1,-2,x,x,x,-1.7,x,3.3,2,0.71
COc1cccc(C(=O)NCCS(=O)(=O)N2CCC3(CC2)OCCO3)c1,-1,10,10,2.0,0.3,i,-1.3,-6,0.68
COc1cc(OC)nc(Oc2ccccc2C=O)n1,1,10,11,-1.8,-2.0,i,x,x,x
COc1ccccc1NC(=O)CCn1c(=S)oc2ccccc21,-9,3,5,-1.6,0.8,i,0.5,x,0.62
CC1Cc2nc(SCC(=O)NCC3CCCO3)n(Cc3ccccc3)c(=O)c2S1 (stereo not drawn),2,x,x,x,0.3,x,9.7,1,0.72
O=C(CSc1nnnn1C1CCCCC1)Nc1ccccc1F,-10,9,4,3.9,2.0,i,2.6,6,0.69
CCn1c(=O)c([N+](=O)[O-])c(NCc2ccco2)c2ccccc21,-3,4,-3,0.8,-3.8,x,2.3,x,0.61
C/C(=N\NC(=O)c1ccc(O)cc1)c1ccc(NC(=O)Cc2ccccc2)cc1,6,-6,1,1.3,-2.3,i,x,-5,x
CN(C)S(=O)(=O)c1ccc(C(=O)NCCOc2ccccc2)cc1,2,x,x,x,-1.0,x,2.0,x,0.69
Cc1ccc(NC(=O)C(CC(C)C)NC(=O)C2CCC(C)CC2)nc1 (stereo not drawn),-5,x,x,x,-0.4,x,0.8,-2,0.69
COc1ccc(NC(=O)NNC(=O)c2cc(C3CC3)nc3ccccc23)c(OC)c1,2,-1,-16,-0.3,-0.2,i,-0.8,45,0.68
O=C(CSc1ccc(Cl)cc1)NC1CCCC1,1,x,x,x,-2.4,x,4.7,-3,0.66
Cc1nn(CCOc2ccccc2)c(=O)n1-c1ccc(Cl)cc1,0,5,13,-1.3,0.5,i,-0.7,0,0.69
COc1ccccc1CCC(=O)OCC(=O)Nc1cccc(S(=O)(=O)N2CCCCC2)c1,2,-11,-4,0.1,-0.6,i,2.4,0,0.62
CCN(CC)c1ccc(C(=O)NNC(=O)CN2C(=O)NC3(CCCCC3)C2=O)cc1,1,8,6,1.7,-1.0,i,7.8,x,0.64
CCN(CC)CCn1c(NCc2nc3ccccc3n2Cc2ccccc2)nc2ccccc21,11,x,x,x,3.6,x,4.6,-12,0.69
COc1ccc(-n2nnc3c(=O)n(CC(=O)Nc4cc(C)on4)cnc32)cc1OC,9,7,8,-0.7,-3.0,i,-4.2,-3,0.72
Cc1ccc(-n2ncc3c2CC(C)(C)CC3NC(=O)CCc2cccnc2)cc1 (stereo not drawn),-1,-4,-7,-1.8,0.9,i,-2.6,-4,0.71
COc1ccc(C(=O)N/N=C\C(C)=C\c2ccccc2)cc1OC,-4,-37,-30,-7.2,3.1,i,x,-2,x
Cc1c(Cl)cccc1NC(=O)CSc1nc2c(c(=O)[nH]1)CCCC2,x,x,x,x,x,x,1.5,-16,0.69
Cc1ccc(S(=O)(=O)N2CCN(C(=O)NCc3ccc(F)cc3)CC2)c(C)c1,-10,11,10,2.8,-1.3,i,2.0,1,0.7
Cc1ccc(C2N(c3ccc(Cl)c(Cl)c3)C(=O)C3CCCN32)o1 (stereo not drawn),7,x,x,x,0.5,x,7.1,-5,0.7
COc1ccccc1NS(=O)(=O)c1cccc(C(=O)N/N=C2\CC(=O)CC(C)(C)C2)c1,18,27,22,23,11,i,x,92*,x
CCCCN(C)C/C(O)=C(\C#N)c1nc(-c2ccccc2)cs1,8,x,x,x,-0.7,x,6.2,72,0.7
Cc1cccc(NC(=O)CSc2nnc(NC(=O)CN3CCCCC3)s2)c1,x,4,-6,-5.5,x,i,1.2,0,0.65
CNc1ccc(Cl)cc1C(N)=O,5,6,3,-0.8,-2.3,i,i,-2,0.7
Cc1ccc(C(C)C)c(OCC(=O)NS(=O)(=O)c2ccc(Cl)cc2)c1,3,-12,-42,-1.4,-3.3,i,2.7,u,0.69
CCOc1ccc(CNC(=O)CCC(=O)N2CCSc3ccccc32)cc1,-2,0,-22,-4.1,0.2,i,0.0,-14,0.66
c1ccc2[nH]c(CSc3ncnc4c3oc3ccccc34)nc2c1,-5,x,x,x,0.4,x,3.1,14,0.71
CC1(C)C=Cc2cc3ccc(=O)oc3cc2O1,0,9,13,6.5,-2.1,i,-323,68,0.77
CCN(c1ccccc1)S(=O)(=O)c1cc(CN2C(=O)c3cccnc3C2=O)ccc1OC,7,-1,-3,-3.9,5.1,i,-0.8,-13,0.7
NC(=O)CSc1nnnn1-c1cccc(Cl)c1,0,6,6,-0.8,-1.4,i,1.6,-4,0.68
CN(C)c1ccc(NC(=O)Oc2ccccc2)cc1,-7,x,x,x,0.0,x,-0.8,97*,0.67
O=C1C2C3c4ccccc4C(c4ccccc43)C2C(=O)N1Cc1ccccn1 (stereo not drawn),-5,-15,-12,-0.1,0.1,x,0.6,x,0.69
COc1cccc(CSc2nc3ccncc3[nH]2)c1,-4,1,4,2.3,-1.9,i,0.7,0,0.63
COc1ccc(CCNc2cc(C)nc3c(-c4ccc(Cl)cc4)c(C)nn23)cc1OC,0,x,x,x,-4.8,x,-282,20,0.71
CCOC(=O)c1cc(S(=O)(=O)N2CCC(C)CC2)cn1C,-2,6,9,2.3,-0.4,i,5.5,5,0.7
Cc1cc(C)cc(C(O)c2ncc(-c3ccccc3)[nH]2)c1 (stereo not drawn),x,2,-10,39,0.3,i,x,x,x

# Quoted from the listing (two entries):
SMILES,Beta2AR agonist,rRNA inh HTS,rRNA inh HTS OD600,rRNA inh HTS RFP,HNF4A DNA FP,FGF22 binding,UCH37 DUB inh,ALR inh,Ecoli growth
COc1ccccc1CCC(=O)OCC(=O)Nc1cccc(S(=O)(=O)N2CCCCC2)c1,2,-11,-4,0.1,-0.6,i,2.4,0,0.62
CCN(CC)c1ccc(C(=O)NNC(=O)CN2C(=O)NC3(CCCCC3)C2=O)cc1,1,8,6,1.7,-1.0,i,7.8,x,0.64

# Next structures
SMILES,Beta2AR agonist,rRNA inh HTS,rRNA inh HTS OD600,rRNA inh HTS RFP,HNF4A DNA FP,FGF22 binding,UCH37 DUB inh,ALR inh,Ecoli growth
O=C(NC1CCCC1)c1ccc([N+](=O)[O-])s1,8,-20*,-12*,-1.7*,-2.9,i,8.1,-44,0.68
Clc1cc(Br)ccc1OCCCn1ccnc1,-5,-25,-64,-7.1,-1.5,i,0.1,-3,x
Cn1nc(-c2ccc(Cl)cc2)c2cc(C(=O)NCCCN3CCOCC3)sc21,19,x,x,x,-2.0,x,-130,95*,0.72
CCOC(=O)[C@H]1[C@H]2COc3ccc(OC)cc3[C@@H]2N2C(=O)CN(CC3CCCO3)C(=O)[C@@]12C (stereo partly drawn),7,-16,-27,6.0,0.4,i,-2.3,0,x
CC(=O)c1ccc(OCC(=O)Nc2ccc(N3CCCCC3)cc2)cc1,-2,2,2,0.2,2.7,i,0.6,17,0.69
Cc1occc1C(=O)N/N=C/c1cnn(C)c1C,17,x,x,x,3.5,x,x,-1,x
CC(C)=CCCC(C)N(C=O)C(C)CCC=C(C)C (stereo not drawn),21,x,x,x,4.8,x,6.9,-7,0.7
CCC(OC(=O)c1nsc(Cl)c1Cl)C(=O)NCc1cccs1 (stereo not drawn),-1,x,x,x,-2.2,x,4.6,-11,0.68
O=C1CCC/C(=N\NC(=O)c2ccc(CSc3cccc4cccnc34)cc2)C1,-2,-21*,-12*,-0.8*,1.2,i,x,5,x
CCN1C(=O)/C(=C/c2cc(C)n(C)c2C)SC1=Nc1ccc(OC)cc1,31,x,x,x,2.3,x,-1.3,-5,x
N#CCSc1ncccc1-c1nc2ccccc2[nH]1,-2,x,x,x,8.8,x,1.3,-9,0.73
COc1ccc(-c2nc3cc([N+](=O)[O-])ccc3o2)cc1,-3,24,-1,2.8,3.9,i,2.3,-1,0.68
Cc1ccc(CNC(=O)CN2C(=O)c3ccccc3S2(=O)=O)cc1,6,-15,-22,-1.5,2.0,i,3.6,6,0.66
COc1ccc(NC(=O)CS(=O)(=O)c2ccc(Br)cc2)cc1,-2,1,5,1.6,-1.6,i,3.2,x,0.64
O=C(c1ccccc1)c1ccc2cc(O)ccc2c1,-3,-50,-70,-12,6.0,i,5.0,99*,0.62
O=C1C(=O)N(CCN2CCOCC2)C(c2ccc(Cl)c(Cl)c2)/C1=C(/O)c1ccc2c(c1)OCO2 (stereo not drawn),-1,-1,-4,-2.3,-3.4,i,10.0,12,0.72
CCN(CC)CCCn1c2c(c(SCC(=O)Nc3nc4ccccc4s3)nc1=O)CCC2,9,0,0,-0.7,0.1,i,5.0,99*,0.61
COc1ccc(CCC(C)NCc2ccccc2OC)cc1 (stereo not drawn),-5,3,-6,-0.7,0.2,i,0.9,-4,0.65
Cc1c(C(=O)NCc2ccc(C(C)C)cc2)sc(=O)n1Cc1ccc(S(=O)(=O)N(C)C)cc1,x,7,1,-1.2,-0.3,i,x,x,x
CN(CC(=O)Nc1ccc(Cl)cc1)CC(=O)Nc1cccc2ccccc12,10,x,x,x,1.2,i,1.8,2,0.64
CC(C)Cn1c2c(c(O)c(C(=O)Nc3ccc(F)cc3)c1=O)CCCC2,3,x,x,x,-2.4,x,-1.5,-5,0.74
NC(=O)[C@@H]1CC2(CC(c3cccc(NC(=O)CC(c4ccccc4)c4ccccc4)c3)=NO2)CN1C(=O)c1ccc(Cl)cc1 (stereo partly drawn),9,6,2,-0.4,0.9,i,2.6,1,x
CSC(=NC#N)N1CCN(c2ccc(Cl)cc2)CC1,-4,x,x,x,-0.9,x,1.1,97*,0.7
CC(C)(O)c1[nH]c2ccc(C(F)(F)F)cc2c1C(C)(C)O,7,-12,-27,-6.6,1.8,i,0.7,-8,0.7
COc1ccc(NCc2nnc(SCC(=O)Nc3ccccc3)n2C)cc1,-3,4,2,-0.9,-1.6,i,0.5,94*,0.7
Cn1ccc2c(-c3ccc(CO)cc3)cc3c(c21)C1CCC3C1 (stereo not drawn),x,-30*,-24*,-1.9*,171,i,x,x,x
O=C(COC(=O)c1nc(Cl)ccc1Cl)Nc1ccc2c(c1)OCO2,-14,x,x,x,-4.9,i,1.3,-1,0.65
CSCCC(NC(=O)/C(=C/c1ccc(F)cc1)NC(C)=O)C(=O)O (stereo not drawn),1,6,4,-4.2,-2.0,x,-1.0,-22,x
Oc1ccc(/C(Cc2ccccn2)=N\Nc2ccccc2)c(O)c1,-1,-29,-30,-1.8,0.2,i,x,99*,x
O=C(CSc1ccc2nnc(-c3ccc(F)cc3)n2n1)NCc1ccco1,-1,x,x,x,-0.5,x,-50,-6,0.67
CCCCNC(=S)NCc1ccc2[nH]c3c(c2c1)CCCC3,0,-4,-9,-2.1,-0.9,i,7.1,15,0.76
COc1ccc(C2CC(c3ccc(Cl)c(Cl)c3)Nc3nc(N)nn32)cc1 (stereo not drawn),-7,3,-2,-0.8,-1.2,i,-1.5,2,0.7
COc1ccc(C(=O)NCC(=O)N/N=C(\C)c2ccco2)cc1OC,13,5,5,-2.3,-2.1,i,x,1,x
CCN1C[C@@H]2[C@@H]3C(=O)N(C)C(=O)[C@@H]3[C@](C)(C1=O)N2C(=O)c1ccc(Cl)c(Cl)c1,-2,16,9,-1.8,-2.0,i,0.4,x,x
Cc1ccc(NC(=S)N2CCN(S(=O)(=O)c3ccc(F)cc3)CC2)cc1,-16,2,-1,3.1,3.1,i,-0.5,-18,0.65
CCn1c(CCc2nc3ccccc3[nH]2)n[nH]c1=S,1,13,17,2.3,-0.6,i,-0.3,12,0.66
COc1ccc(-n2nc3c(c2NC(=O)CCl)CSC3)cc1,-6,7,12,-2.0,0.8,i,x,x,x

# An excerpt; count on the stated rates, not on these rows.
